Screening data: PubChem BioAssay, several laboratories
LANA-H2B inh = blockers of LANA interaction with H2A/H2B – biochemical, FP readout, HTS, primary screen; cell-free LANA-H2A/H2B peptide, fluorescence polarization; Protein LANA1 (Human herpesvirus 8 type P (isolate GK18)), Q9QR71; AID 2629, 2010; inhibition, % (test concentration not listed); 320,000 tested, 0.6% active; in the data active = inhibition mostly above about 10%, no sharp cut-off; inactive = mostly below about 6.7%;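 also: stock transfer was 7.5 nL into about 10 µL; 0% = median of vehicle wells and 100% = median of positive control wells; one replicate is shown; the record names a cut of 25% in any replicate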
B2AR ag = beta2AR agonists driving receptor internalization, primary screen, cell-based, FAP fluorogen, flow cytometry; Beta-2 adrenergic receptor (Homo sapiens), P07550; Am2.2-beta2AR cells; reference of the scale not given here; response, % (test concentration not listed); 340,000 tested, 0.43% active;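 active = response above a set limit, near 3 SD of response in nonfluorescent compounds, cut at about 42% in these data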;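 also: stock transfer was 100 nL into about 11 µL; a reference agonist was the positive control; negative values mostly stem from fluorescent compounds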
Target sequence (P07550 whole entry, looked up): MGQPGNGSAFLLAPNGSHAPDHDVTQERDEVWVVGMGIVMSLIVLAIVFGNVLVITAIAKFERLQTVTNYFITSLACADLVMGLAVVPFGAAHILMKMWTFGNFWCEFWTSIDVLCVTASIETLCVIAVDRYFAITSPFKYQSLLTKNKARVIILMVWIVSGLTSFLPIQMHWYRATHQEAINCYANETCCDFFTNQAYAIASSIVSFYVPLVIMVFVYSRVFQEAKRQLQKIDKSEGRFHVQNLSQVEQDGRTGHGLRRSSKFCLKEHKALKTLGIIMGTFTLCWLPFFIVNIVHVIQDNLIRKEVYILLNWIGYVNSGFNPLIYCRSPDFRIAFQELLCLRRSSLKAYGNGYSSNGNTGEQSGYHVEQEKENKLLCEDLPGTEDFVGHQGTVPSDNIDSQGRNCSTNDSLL
A1 inh = caspase 3/7 activation in MEF A1-2A-BIM cells, primary screen, A1 inhibitor project, cell-based, luminescence, HTS; Caspase-Glo 3/7 luminescence, 3 h; percent of clofoctol response, vehicle zero; caspase activation, % (no concentration beside the values); 330,000 tested, 0.066% active;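 active = over half of replicate activation scores above 10%, or exactly half above 10 with the replicate mean above 10; inconclusive = replicate mean below 10 yet half the replicates above 10; inactive = over half of replicates below 10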;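 also: wells of about 30 µL received 50 nL stock; many hits fall short of the cut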
ALR inh = inhibitors of human ALR sulfhydryl oxidase, primary screen, biochemical, H2O2 detection, HRP-luminol luminescence, single point | inhibition, % (test concentration not listed) | 290,000 tested, 3.8% active | AID 485317, 2010 | purified ALR, DTT oxidation;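 active = mean and each replicate at 75% or more; inconclusive = only one of the two met; inactive = neither met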;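 also: stock transfer was 7.5 nL into about 7.5 µL; 0% = neutral wells and 100% = wells with inactivated enzyme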
Target sequence (P55789 whole entry, looked up): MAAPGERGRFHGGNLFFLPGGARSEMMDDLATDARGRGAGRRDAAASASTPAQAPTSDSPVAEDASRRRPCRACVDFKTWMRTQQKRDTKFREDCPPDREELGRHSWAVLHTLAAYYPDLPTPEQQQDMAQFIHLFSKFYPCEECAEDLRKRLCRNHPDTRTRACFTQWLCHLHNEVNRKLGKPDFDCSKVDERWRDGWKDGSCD
Beta cell apopt = inhibitors of cytokine-induced beta cell apoptosis, primary screen, luminescence | INS-1E cytokine-induced death, ATP luminescence, 48 h; percent of positive-control rescue, neutral wells zero | protection from apoptosis, % (concentration not given with the values) | AID 435005, 2010 | 300,000 tested, 0.8% active;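 active = all replicates at 75% or more, or half of them and the mean; inconclusive = half reach 75% but not the mean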;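 also: 0% = cytokine-treated negative control wells and 100% = positive control rescue; higher means more ATP so stronger rescue from cytokine killing; wells of about 40 µL received 100 nL stock; the first replicate is given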
Calb FLC = C. albicans growth inhibition with fluconazole, primary screen, CaCi-2 strain, Alamar Blue fluorescence; C. albicans CaCi-2 (fluconazole-resistant clinical isolate) + fluconazole, 48 h; growth inhibition, % (concentration not given with the values); 300,000 tested, 0.57% active;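 active = most replicates above 75%; inconclusive = exactly half above 75%; inactive = most below 75%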;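 also: all wells also contain fluconazole at 8 µg/ml as a sub-toxic cotreatment; 0% = median of DMSO wells and 100% = median of geldanamycin control wells; wells of about 8 µL received 7.5 nL stock; the first replicate is given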
Ecoli rRNA inh = reduced GFP signal of wild-type E. coli, primary screen, bacterial rRNA inhibitor project, GFP/RFP fluorescence, OD600, single point. E. coli WT GFP vs humanized-ribosome RFP mutants, 24 h; stronger effect = lower value; DMSO median 0, no signal -100. GFP signal change (wild-type ribosome), % (no concentration beside the values). 350,000 tested, 1.6% active;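 active = significant combined selectivity score with lowered wild-type GFP, culture density cut under 30%, mutant RFP and density less affected; inactive = any of these conditions unmet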; also: one replicate is shown; some compounds called inactive have numbers as strong as hits
T cruzi repl = inhibitors of intracellular T. cruzi growth, primary screen, luminescence, NIH3T3 host cells; 300,000 tested, 1.4% active; inhibition, % (concentration not given with the values); T. cruzi beta-gal in NIH3T3, 90 h;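 active = mean inhibition across valid replicates above about 55%, limit read from the data; inconclusive = mean below that limit but half or more replicates reach it; inactive = mean below it, under half of replicates reach it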;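 also: signal also drops with host cell toxicity which is not excluded here; 0% = plate median of DMSO wells and 100% = zero luminescence signal; higher percent means less beta-gal luminescence so fewer parasites; stock transfer was 50 nL into about 50 µL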
Ecoli rRNA inh OD600 = second read-out of Ecoli rRNA inh, no call of its own (marks repeat the call); OD600 change, %; measured here: OD600 growth;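 optical density of the mix in the first replicate; 0 = DMSO median and -100 = no signal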
Ecoli rRNA inh RFP = second read-out of Ecoli rRNA inh, no call of its own (marks repeat the call); RFP signal change, %; measured here: RFP humanized mutant strains;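 first replicate; 0 = DMSO median and -100 = no signal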
* = called active by the depositor; i = inactive; ? = inconclusive; nt = no result given. The list is partial (hit frequency here may not be typical).

SMILES	LANA-H2B inh	B2AR ag	A1 inh	ALR inh	Beta cell apopt	Calb FLC	Ecoli rRNA inh	Ecoli rRNA inh OD600	Ecoli rRNA inh RFP	T cruzi repl
O=C(NCc1csc2ccccc12)Nc1cc(Cl)cc(Cl)c1	-0.3	-2.8	0.1	nt	5.8	-3.5	-10.0	-1.3	0.4	44.2
COCCCNCC(O)C(F)(F)F (stereo not drawn)	3.7	2.8	1.1	-4.3	-0.4	13.9	12.9	6.1	1.9	-6.1
CN(C)CCCNC(=O)c1cc(Br)ccc1O	-0.1	1.3	-1.9	0.3	-4.2	-3.9	12.2	6.9	1.6	8.5
COc1ccc([C@H]2CC(=O)C=C(c3ccc4ncccc4c3)C2)cc1OC	0.9	-6.0	0.2	-30.8	-11.4	nt	-11.2	-8.5	0.3	nt
Cc1ccc(-c2nc3cc(Cl)ccc3o2)cc1	i	1.4	-6.2	0.5	-0.2	nt	nt	nt	nt	-9.1
CCC(C)N(C(=O)COc1ccc(-c2nnco2)cc1)C1CCS(=O)(=O)C1 (stereo not drawn)	-0.5	-0.5	0.5	-14.1	-7.1	7.7	7.4	10.2	-1.3	2.9
Cc1cc(NC(=O)c2sccc2C)n(-c2cccc(Cl)c2)n1	9.8	-6.4	0.2	nt	-3.5	-8.0	nt	nt	nt	-0.7
CCOC(=O)c1ccc(-c2ccc3oc(-c4ccsc4)cc(=O)c3c2)cc1F	1.2	-0.5	0.0	-1.2	-5.8	nt	4.9	4.9	3.0	nt
COc1cccc([C@@H]2Oc3ccc(Br)cc3C(=O)[C@H]2OC(=O)NC2CCCC2)c1	-8.0	nt	1.1	10.8	-7.6	nt	nt	nt	nt	nt
COc1cc(/C=N/O)ccc1Oc1cnccn1	3.9	13.8	0.3	-2.6	-3.9	31.4	3.3	9.4	-0.7	-6.5
CCN(CC)CCN1C(=O)C(=O)/C(=C(/O)c2c(C)[nH]c(C(=O)OC)c2C)C1c1ccccc1 (stereo not drawn)	-4.0	-1.4	0.8	-20.6	nt	4.0	nt	nt	nt	-10.9
COc1ccc(CNC(=O)[C@H](Cc2c[nH]c3ccccc23)NC(=O)[C@@H]2Cc3ccccc3CN2)cc1	-1.2	-1.5	0.8	nt	0.9	-3.2	2.5	3.6	-5.7	4.4
c1ccc(-n2nnnc2Oc2ccc(-n3ccnc3)cc2)cc1	0.2	-1.2	-0.1	-2.9	-5.9	1.0	nt	nt	nt	-12.6
O=C(NCc1ccccn1)/C(=N/O)c1ccccc1	-0.9	-5.4	-0.1	-4.4	2.9	-4.0	nt	nt	nt	-11.9
CC(=O)Nc1cccc(NC(=S)Nc2cccc(Cl)c2C)c1	1.6	-1.0	-0.9	nt	-1.2	0.4	-3.4	-10.9	-6.3	-15.9
COc1ccc(NS(=O)(=O)c2cccc(C(=O)NCC3(N4CCCCC4)CCCCC3)c2)cc1	-1.0	12.0	-0.3	7.2	-9.8	-9.2	1.3	7.4	6.6	-2.7
Cc1ccc(C)c(N2C(=N)S/C(=C\c3ccc(-c4ccccc4C(=O)O)o3)C2=O)c1	1.3	-5.8	1.0	5.6	-10.6	6.1	-22.4	-14.4	12.8	-3.0
FC(F)(F)c1cnc(C(c2ccccc2)c2ncn[nH]2)c(Cl)c1 (stereo not drawn)	8.0	0.6	-0.3	-2.6	-6.6	-4.0	5.1	-3.4	-0.3	1.2
COC(=O)/C(C#N)=C/c1ccc(C)o1	2.6	-1.9	-0.6	10.3	-18.9	2.7	7.7	5.7	-0.5	-7.5
CCOC(=O)N1CCN(Cc2ccc3ccccc3c2)CC1	0.9	-1.0	-7.3	-6.3	9.6	-5.0	-10.9	-6.8	-1.9	-2.4
COc1ccc(-c2oc3ccc(-c4cc(OC)c(OC)c(OC)c4)cc3c2-c2ccc(OC)nc2)cc1	7.2	1.5	0.1	-2.0	5.1	-4.1	10.6	21.5	-9.8	49.4
Cc1ccc(S(=O)(=O)N2CCN(C3CC4CCC3C4)CC2)cc1 (stereo not drawn)	-1.7	1.1	0.8	-6.0	-3.1	-3.0	3.9	7.1	0.2	21.0
Cn1cccc1CC(=O)N/N=C/C(Cl)=C/c1ccccc1	-1.4	-0.1	0.6	nt	-6.6	-6.7	-0.6	9.8	3.0	-3.0
S=C(NCc1ccccn1)Nc1ccccc1	-0.7	-2.1	1.0	-1.5	-3.5	-6.4	-1.3	5.5	1.0	-20.9
CC1(C)CC(=O)C2=C(C1)OC(N)=C(C#N)C2c1ccc(OC(=O)N2CCOCC2)cc1 (stereo not drawn)	-2.0	0.3	0.7	13.6	-0.7	-3.4	nt	nt	nt	2.3
Next part.
SMILES	LANA-H2B inh	B2AR ag	A1 inh	ALR inh	Beta cell apopt	Calb FLC	Ecoli rRNA inh	Ecoli rRNA inh OD600	Ecoli rRNA inh RFP	T cruzi repl
CN(C)CC/C=C1/c2ccccc2CS(=O)(=O)c2ccccc21	0.5	1.9	0.6	-2.7	nt	-12.6	9.0	9.6	1.7	23.4
Cc1cc(C=O)c(C)n1-c1ccc(Oc2ccc([N+](=O)[O-])cn2)cc1	0.3	16.0	0.5	-3.6	10.4	-5.5	23.1	19.2	-0.2	0.5
COc1cccc(NC(=S)N2CCN(c3ccccn3)CC2)c1	0.5	-6.4	0.2	-4.7	-2.0	?	nt	nt	nt	-21.4
O=C(NCc1ccccc1)c1ccc2nccnc2c1	3.2	15.2	0.7	-3.8	-0.7	-21.2	18.8	-5.4	-3.5	-5.1
CC(=O)Nc1cc2c(cc1NC(=O)Cn1nc(-c3ccc(F)cc3)ccc1=O)OCCO2	2.2	8.4	0.3	-1.6	-1.3	-0.2	5.0	2.6	-1.4	-7.4
Cc1cccc(Nc2nc(N)c([N+](=O)[O-])c(N3CCN(C)CC3)n2)c1	-11.4	-3.8	0.6	-10.7	3.5	1.8	nt	nt	nt	-1.9
O=C(Nc1ccc2c(c1)OCCO2)c1cc(-n2cnnc2)ccc1Cl	-1.4	-6.9	0.2	-9.4	-7.3	33.8	nt	nt	nt	6.8
CCOc1ccc(CCNC(=O)C2CCCN(c3ncnc4c3nc3n4CCCCC3)C2)cc1 (stereo not drawn)	0.5	-6.6	-0.2	-6.9	1.1	-1.8	-2.5	1.8	-0.6	24.1
O=C(OCC(=O)N1CCCC1=O)c1cc2ccccc2o1	-0.1	2.5	-0.3	1.5	-4.7	nt	8.2	4.0	-2.0	nt
O=C(Nc1nc2ccc(S(=O)(=O)N3CCCC3)cc2s1)c1ccco1	-1.8	-17.0	0.3	-11.9	-13.2	-7.7	2.1	-0.2	-4.0	-2.3
Cc1cc(NC(=O)CN(C)S(=O)(=O)c2ccc(-c3ccc(=O)[nH]n3)s2)ccc1Br	0.8	4.1	-0.6	-7.7	-1.5	-7.9	4.2	17.5	3.0	-8.0
CSCC[C@H](NC(=O)NCc1cccs1)C(=O)O	3.5	-2.4	0.7	14.2	8.2	-31.5	nt	nt	nt	1.9
Cc1ccc(CNC(=O)[C@H](Cc2ccccc2)NC(=O)C2CCNCC2)cc1	-3.7	3.5	0.0	1.0	-4.5	nt	13.1	3.8	0.8	0.3
COc1cc(OC)c(C(=O)OCC(=O)N2CCOCC2)cc1OC	-0.4	1.8	0.6	nt	1.5	1.7	5.2	-1.5	-2.6	-6.4
CCN(CC)S(=O)(=O)c1ccc(C(=O)NCc2ccc(C)cc2)cc1	-1.2	-4.9	0.1	-22.5	-11.3	-4.7	nt	nt	nt	1.2
COc1ccc(CNc2nc3ccccc3s2)cc1OC	-0.4	10.3	0.0	1.5	-5.4	-2.4	-15.8	-5.2	0.3	-16.1
O=C1CC(c2ccc(Cl)cc2)n2nc(N3C(=O)CCC3=O)nc2N1 (stereo not drawn)	-2.2	1.6	0.6	-12.6	-2.8	0.6	9.3	7.9	-4.4	-6.7
CC(C)(C)c1ccc(C(=O)O/N=C(\N)c2ccccn2)cc1	3.2	-6.5	1.1	-0.9	-3.8	7.8	-11.3	-13.7	1.6	22.3
O=C(NCc1ccco1)c1cc(NS(=O)(=O)c2cccc([N+](=O)[O-])c2)ccc1O	-4.0	2.5	0.7	65.0	-2.7	6.2	-5.8	-11.1	-2.4	1.8
Cc1ccc(NC(=O)NCCCN2CCCC2=O)cc1C	1.9	-1.8	0.9	5.1	-5.2	8.0	0.7	-0.1	1.7	11.0
Cc1ccc(CNC(=O)CCC2CCCN(Cc3cccc4cccnc34)C2)o1 (stereo not drawn)	1.0	-3.0	-0.2	-11.6	-1.3	-11.9	18.2	-3.6	0.3	46.1
CCOC(=O)Cc1csc(NS(=O)(=O)c2cccc([N+](=O)[O-])c2)n1	-1.4	1.2	-1.0	-21.5	-3.9	-2.8	14.5	13.9	-1.1	-5.9
COc1cccc(NC(=O)CNC(=O)Cn2cnc3sc4c(c3c2=O)CCCC4)c1	3.4	-8.7	-0.5	-0.5	-4.3	1.6	7.4	1.4	-0.2	11.0
Cc1ccccc1N/N=C/c1ccc(C#N)cc1	-1.0	-2.0	-1.6	-1.0	-2.7	-11.1	-15.9	-8.4	2.9	12.2
COc1ccc(/C=N/NC(=O)c2cccc(NC(C)=O)c2)c(OC)c1	3.0	-1.9	-1.0	-10.0	nt	-41.9	9.7	6.7	-1.1	1.9
Cc1cc(C(=O)CSc2nc3ccc(Cl)cc3[nH]2)c(C)n1Cc1ccco1	3.3	3.2	-0.1	-3.8	1.9	-0.6	9.2	-8.0	9.4	10.5
CCOC(=O)CN(C(=O)CNC(=O)c1ccco1)C(C(=O)NC1CCCC1)c1ccccc1OCC (stereo not drawn)	3.0	-8.7	0.9	-19.4	nt	-2.6	nt	nt	nt	6.8
COc1ccccc1NC(=S)NC(=O)Cc1ccc(Cl)cc1	0.1	-7.7	0.8	-0.8	-1.2	-5.4	7.9	-2.6	-3.7	-8.1
Cc1ccc(C(=O)Nc2cccc(NC(=O)c3cccnc3)c2)cc1	-5.3	-1.5	-0.1	nt	4.8	-12.1	6.2	13.4	-0.8	6.1
COC(=O)c1cc(-c2ccc(OC)c(OC)c2)c2c(=O)[nH]c(=O)n(C)c2n1	2.7	12.5	-3.5	-1.1	-5.7	5.5	1.0	6.1	-8.6	-1.6

As a short view, two of the compounds above:
SMILES	LANA-H2B inh	B2AR ag	A1 inh	ALR inh	Beta cell apopt	Calb FLC	Ecoli rRNA inh	Ecoli rRNA inh OD600	Ecoli rRNA inh RFP	T cruzi repl
O=C(NCc1ccco1)c1cc(NS(=O)(=O)c2cccc([N+](=O)[O-])c2)ccc1O	-4.0	2.5	0.7	65.0	-2.7	6.2	-5.8	-11.1	-2.4	1.8
Cc1ccc(NC(=O)NCCCN2CCCC2=O)cc1C	1.9	-1.8	0.9	5.1	-5.2	8.0	0.7	-0.1	1.7	11.0
